H5N1 antiviral: MDCK cell protection from H5N1 avian flu; cytopathic effect, luminescence, 72 h; hits give high values; no value below 0 was filed and about half of the inactive calls have no number; reference of the scale not given here; inhibition, % at 50 µM; 0.07% of 96,000 active; AID 740, 2007; in the data active means inhibition above about 25%
Starred values were filed as active, the others as inactive.

CCOC(=O)c1nn(-c2ccccc2)c(=O)c(C#N)c1C was read as H5N1 antiviral inactive.
For Cn1c(C(=O)N2CCc3ccccc3C2)cc2oc3ccccc3c21 the results were H5N1 antiviral 0.2.
For O=C(NCCc1csc(-c2cccnc2)n1)c1cccs1 the results were H5N1 antiviral 8.2.
Screening CCC(=O)Nc1ccc(C(=O)CSc2nnc(-c3cccnc3)o2)cc1 returned H5N1 antiviral inactive.
For CCN(CC)CCCNc1cc2n(c(=O)n1)CCc1cc(OC)c(OC)cc1-2 the results were H5N1 antiviral inactive.
`CCOC(=O)C1CCN(Cc2cnc(Oc3ccc(Cl)cc3C)s2)CC1` gave H5N1 antiviral 0.0.
For CCCSc1nc(N)nc(-c2cccs2)c1C#N the results were H5N1 antiviral 1.0.
Screening Cc1ccc2oc(NC(=O)N3CCOCC3)cc(=O)c2c1 returned H5N1 antiviral inactive.
`c1ccc2c(c1)ccc1nnc(SCc3ccc4c(c3)OCO4)n12` gave H5N1 antiviral 2.2.
CCOC(=O)c1c(NC(=O)c2ccc(Br)o2)sc2c1CCCC2 was read as H5N1 antiviral inactive.
For O=C(CN1C(=O)C2CC=CCC2C1=O)Nc1nnc(SCc2ccc(F)cc2)s1 (stereo unspecified) the results were H5N1 antiviral 0.9.
Screening COc1cc(-c2nc(-c3cccc(C(F)(F)F)c3)no2)cc(OC)c1OC returned H5N1 antiviral inactive.
For N#Cc1ccccc1NC(=O)c1ccccc1OCC(=O)NCc1ccco1 the results were H5N1 antiviral 0.6.
`Cc1ccc(-n2ncc(C#N)c2/N=C/N2CCCCCC2)cc1` gave H5N1 antiviral 5.1.
Screening Cc1noc(C)c1COc1ccc(C(=O)OC(C)C(=O)Nc2ccc(N3CCOCC3)cc2)cc1 (stereo unspecified) returned H5N1 antiviral inactive.
Screening CCNC(=O)c1c(C)nc2ccccn12 returned H5N1 antiviral inactive.
Screening CC(=O)Oc1c(S(=O)(=O)c2ccccc2)c(C)nn1C(C)(C)C returned H5N1 antiviral inactive.
For CC(C)(C)n1ncc2c(=O)n(CC(=O)Nc3ccc4c(c3)OCO4)cnc21 the results were H5N1 antiviral inactive.
`COc1cc(S(=O)(=O)NCc2ccc3c(c2)OCO3)ccc1Cl` gave H5N1 antiviral inactive.
Cn1cnnc1SCC(=O)NCCc1ccccc1 was read as H5N1 antiviral 0.5.
CC(C)CC(=O)Nc1ccc(C(=O)Cn2nc(C(=O)O)c3ccccc3c2=O)cc1 was read as H5N1 antiviral 0.6.
`CC1CN(C(=O)CN2C(=O)NC3(CCCCCC3)C2=O)CC(C)O1` (stereo unspecified) gave H5N1 antiviral 1.4.
`CCOC(=O)C1=C(N)Oc2c(c(=O)oc3ccccc23)C12C(=O)N(C)c1ccccc12` (stereo unspecified) gave H5N1 antiviral inactive.
CC(C)(C)n1nc2c(c1NC(=O)c1ccc(S(=O)(=O)N3CCCCC3)cc1)CS(=O)C2 (stereo unspecified) was read as H5N1 antiviral inactive.
CCCSc1nnc2n(N)c(=O)c3ccccc3n12 was read as H5N1 antiviral 0.4.
Screening COCCNC(=O)COc1ccc(C)c(C)c1 returned H5N1 antiviral inactive.
For Cc1nc2c(C)cccn2c1/C(O)=C1\C(=O)C(=O)N(CCN(C)C)C1c1ccncc1 (stereo unspecified) the results were H5N1 antiviral inactive.
`CCOC(=O)c1ccc(NC(=O)N2CCN(S(C)(=O)=O)CC2)cc1` gave H5N1 antiviral 0.5.
Screening Cc1cc(NS(=O)(=O)c2ccc(NC(=O)CCCOc3ccccc3)cc2)no1 returned H5N1 antiviral 0.1.
For COc1ccc(C(=O)Nc2nc3ccc4nc(C)sc4c3s2)cc1 the results were H5N1 antiviral 0.7.
CC(NS(=O)(=O)c1ccc(F)cc1)C(=O)NCc1ccncc1 (stereo unspecified) was read as H5N1 antiviral 0.3.
`Clc1ccc(-c2noc(CCCOc3ccccc3)n2)cc1` gave H5N1 antiviral 0.2.
Screening O=C(CN1C(=O)c2ccccc2C1=O)Nc1ccc(S(=O)(=O)NCC2CCCO2)cc1 (stereo unspecified) returned H5N1 antiviral 0.7.
O=P(O)(O)c1ccccc1OCCOCCOc1ccccc1P(=O)(O)O was read as H5N1 antiviral 1.2.
`Cc1nc(-c2cnn(-c3ccccc3)c2)c2cc(C)oc2n1` gave H5N1 antiviral inactive.
Clc1ccc(OCc2nc(-c3ccncc3)no2)c(Cl)c1 was read as H5N1 antiviral inactive.
`Cc1cccc(N(CC(=O)N/N=C/c2ccc(OCC(=O)NCc3ccco3)cc2)S(C)(=O)=O)c1C` gave H5N1 antiviral inactive.
For Cc1cccc(-c2noc(CCC(=O)Nc3ccccc3)n2)c1 the results were H5N1 antiviral inactive.
For CC1=NOC(=O)/C1=C/c1ccc(N(C)C)cc1 the results were H5N1 antiviral inactive.
CCN(CC)C(=O)CSc1nnc(-c2ccc(S(=O)(=O)NCc3ccccc3Cl)cc2)o1 was read as H5N1 antiviral inactive.
Screening O=C1C2C(C(=O)N1/N=C/c1cc([N+](=O)[O-])ccc1O)C1C=CC2C12CC2 (stereo unspecified) returned H5N1 antiviral inactive.
For COC(=O)CNC(c1ccccc1Cl)c1cc(Br)ccc1NC(=O)CCN1CCOCC1 (stereo unspecified) the results were H5N1 antiviral inactive.
For O=c1[nH]n(-c2cccc3cccnc23)c(=O)c2ccccc12 the results were H5N1 antiviral 0.9.
Screening Cc1ccc(CO/N=C\Cc2snc(Sc3ncc(C(F)(F)F)cc3Cl)c2C#N)cc1 returned H5N1 antiviral 0.4.
Cc1nc2c(C(=O)NCc3ccc(F)cc3)c[nH]n2c(=O)c1Cl was read as H5N1 antiviral inactive.
CC1(C)CC(=O)C(C=Nc2ccc(Cl)cn2)=C(O)C1 was read as H5N1 antiviral inactive.
For CC1(C)Cc2c(C#N)c(OCC(=O)c3ccccc3)nc(-c3ccoc3)c2CO1 the results were H5N1 antiviral 0.4.
Cc1cc2oc(=O)cc(CN3CCC(C)CC3)c2c(C)c1Cl was read as H5N1 antiviral 0.7.
For COc1ccc(Nc2oc(-c3ccccc3Cl)nc2C#N)cc1 the results were H5N1 antiviral inactive.
COc1ccc(N=Cc2sc(O)c3ccccc23)cc1 was read as H5N1 antiviral inactive.
`CN(C)c1ccc(CN2CCCCC2)cc1` gave H5N1 antiviral 0.0.
`Cc1ccc(S(=O)(=O)N2CCC(C(=O)N[C@H](C(=O)NCC3CCCO3)C(C)C)CC2)cc1` (stereo partly specified) gave H5N1 antiviral 0.0.
COc1ccc(NC(=O)Cn2nnc(-c3ccc(CN4CCOCC4)cc3)n2)c(OC)c1 was read as H5N1 antiviral 0.5.
O=C(NNc1nc2ccccc2nc1C(F)(F)F)c1ccccc1 was read as H5N1 antiviral 2.3.
Screening O=C(Nc1ccc2nc(-c3ccccc3)[nH]c2c1)c1ccco1 returned H5N1 antiviral 2.9.
CN(C)c1ccnc(-n2cccc2/C=N/OCc2ccccc2)c1C#N was read as H5N1 antiviral 1.1.
For CCOc1oc(-c2ccc(OC)cc2)nc1C(F)(F)F the results were H5N1 antiviral inactive.
`CCCCSc1nc2c(cnn2-c2ccc(F)cc2)c(=O)[nH]1` gave H5N1 antiviral inactive.
Screening Cc1ccc(C(=O)OC2CCOC2=O)cc1NC(=O)c1ccco1 (stereo unspecified) returned H5N1 antiviral inactive.
Cc1cc(Nc2ccccc2)n(-c2nc3ccccc3[nH]2)n1 was read as H5N1 antiviral 0.2.

Part of the list above in order of molar mass, largest number first.
`Cc1ccc(S(=O)(=O)N2CCC(C(=O)N[C@H](C(=O)NCC3CCCO3)C(C)C)CC2)cc1` (stereo partly specified) gave H5N1 antiviral 0.0.
COc1ccc(NC(=O)Cn2nnc(-c3ccc(CN4CCOCC4)cc3)n2)c(OC)c1 was read as H5N1 antiviral 0.5.
For CC1(C)Cc2c(C#N)c(OCC(=O)c3ccccc3)nc(-c3ccoc3)c2CO1 the results were H5N1 antiviral 0.4.
CN(C)c1ccnc(-n2cccc2/C=N/OCc2ccccc2)c1C#N was read as H5N1 antiviral 1.1.
O=C(NNc1nc2ccccc2nc1C(F)(F)F)c1ccccc1 was read as H5N1 antiviral 2.3.
For COc1ccc(Nc2oc(-c3ccccc3Cl)nc2C#N)cc1 the results were H5N1 antiviral inactive.
Cc1cc2oc(=O)cc(CN3CCC(C)CC3)c2c(C)c1Cl was read as H5N1 antiviral 0.7.
`CCCCSc1nc2c(cnn2-c2ccc(F)cc2)c(=O)[nH]1` gave H5N1 antiviral inactive.
Screening O=C(Nc1ccc2nc(-c3ccccc3)[nH]c2c1)c1ccco1 returned H5N1 antiviral 2.9.
Cc1cc(Nc2ccccc2)n(-c2nc3ccccc3[nH]2)n1 was read as H5N1 antiviral 0.2.
For CCOc1oc(-c2ccc(OC)cc2)nc1C(F)(F)F the results were H5N1 antiviral inactive.
CC1(C)CC(=O)C(C=Nc2ccc(Cl)cn2)=C(O)C1 was read as H5N1 antiviral inactive.
`CN(C)c1ccc(CN2CCCCC2)cc1` gave H5N1 antiviral 0.0.

(cont.)
COc1ccc(CNc2nc3ccccc3n2Cc2ccccc2)cc1OC was read as H5N1 antiviral inactive.
CCOC(=O)/C=C1\SCC(=O)N1CC(=O)Nc1ccc2c(c1)CCC2 was read as H5N1 antiviral inactive.
Screening CCN(CC)CCNC(=O)C1CCC(=O)N1CCc1ccccc1 (stereo unspecified) returned H5N1 antiviral 0.8.
COc1cc(CN2CCN(c3ccc(C)cc3)CC2)cc([N+](=O)[O-])c1O was read as H5N1 antiviral 0.1.
For CC1CCN(C(=O)c2ccccc2NC(=O)c2cccc(S(=O)(=O)N3CCOCC3)c2)CC1 the results were H5N1 antiviral 1.1.
Screening CCN1C(=O)C2(C(C#N)=C(N)Oc3c2c(C)nn3-c2ccccc2)c2ccccc21 (stereo unspecified) returned H5N1 antiviral 0.2.
Screening CSc1nc2c(c(=O)[nH]1)CCCC2 returned H5N1 antiviral inactive.
For CCn1ccc(C(=O)NC2C(=O)N3C(C(=O)O)=C(C)CSC23)n1 (stereo unspecified) the results were H5N1 antiviral inactive.
Screening COC(=O)C(NC(C)=O)(Nc1nc(C)cs1)C(F)(F)F (stereo unspecified) returned H5N1 antiviral 0.3.
For CCOc1cc(C(C#N)N2CCCCC2)ccc1OC (stereo unspecified) the results were H5N1 antiviral 1.2.
`Cc1c(C(=O)OC(C)C)[nH]c2c1C(=O)CC(C)(C)C2` gave H5N1 antiviral 1.6.
For O=C(NCCN1CCN(Cc2ccc([N+](=O)[O-])cc2)CC1)C(=O)Nc1ccccc1 the results were H5N1 antiviral 0.4.
For N#Cc1ccc(Cn2c(=O)c(C#N)c3n(c2=O)CCC3)cc1 the results were H5N1 antiviral 0.5.
For COc1ccc(OCC(=O)N2CCN(C(=O)c3cccs3)CC2)cc1 the results were H5N1 antiviral inactive.
For Nc1ccc2ncccc2c1 the results were H5N1 antiviral 0.0.
For O=C(O)CCC(=O)N1CCc2cc(S(=O)(=O)N3CCCCC3)ccc21 the results were H5N1 antiviral 0.5.
`COC(=O)c1ccc(Cn2cnc3c(cnn3-c3ccc(F)cc3)c2=O)o1` gave H5N1 antiviral 0.7.
O=C(CSc1nnnn1-c1cccnc1)Nc1ccc(OCc2ccccc2)cc1 was read as H5N1 antiviral inactive.
Screening CCc1ccc(NC(=O)CS(=O)CC(=O)Nc2ccc(F)cc2F)cc1 (stereo unspecified) returned H5N1 antiviral inactive.
`CCC(C)c1ccc(NC(=O)C2CC2)cc1` (stereo unspecified) gave H5N1 antiviral inactive.
`O=C(c1cc(-c2ccc(Cl)cc2)n(-c2ccc(Cl)cc2)n1)N1CCOCC1` gave H5N1 antiviral 1.8.
For COc1ccc(N(C)S(=O)(=O)c2c(C)[nH]c(=O)[nH]c2=O)c(OC)c1 the results were H5N1 antiviral 0.1.
COc1ccc(CCNC(=O)CN(C2CCCCC2)S(C)(=O)=O)cc1 was read as H5N1 antiviral 1.6.
`CCCOc1ccc(C(=O)N2CCCC2)cc1OC` gave H5N1 antiviral 1.3.
For O=C(Cn1nnc(-c2ccc(CN3CCOCC3)cc2)n1)NC1CCCCC1 the results were H5N1 antiviral inactive.
`O=C(Nc1ccc(F)cc1)c1ccc(S(=O)(=O)NCC2CCCO2)cc1` (stereo unspecified) gave H5N1 antiviral 2.4.
For COc1ccc(C(=O)Nc2cccc(C(C)=O)c2)c(OC)c1OC the results were H5N1 antiviral inactive.
`Cc1c(C(=O)O)sc2nc3n(c(=O)c12)CCCCC3` gave H5N1 antiviral inactive.
`Brc1ccc(-c2nn3c(Cc4ccccc4)nnc3s2)o1` gave H5N1 antiviral 0.4.
For O=C(CC12CC3CC(C1)CC(CC(=O)NC1=NCCS1)(C3)C2)NC1=NCCS1 the results were H5N1 antiviral 0.4.
For Cc1cccc(NC(=S)NN2CCOCC2)c1C the results were H5N1 antiviral inactive.
`Cc1ccc(C2C3CN(C(C)C)CC=C3C(C#N)=C(N)C2(C#N)C#N)cc1` (stereo unspecified) gave H5N1 antiviral 3.0.
COc1ccc2c(c1)OC(O)(C(F)F)CC2=O (stereo unspecified) was read as H5N1 antiviral 0.8.
For Cc1ccc(-n2nnc3c(=O)n(CC(=O)NCc4ccco4)cnc32)cc1 the results were H5N1 antiviral 2.0.
For CSc1sc(C)cc1C1C(C#N)=C(N)N(c2cccnc2)C2=C1C(=O)CCC2 (stereo unspecified) the results were H5N1 antiviral 0.5.
COc1cc(C2SCC(=O)Nc3c2c(=O)[nH]n3C2CCCCCC2)cc(OC)c1OC (stereo unspecified) was read as H5N1 antiviral inactive.
For Cc1ccc(S(=O)(=O)N2CCN(Cc3nc4ccccc4[nH]3)CC2)cc1C the results were H5N1 antiviral 0.8.
For COC(=O)Nc1ccc2c(c1)N(C(=O)CCN1CCN3CCCC3C1)c1ccccc1S2 (stereo unspecified) the results were H5N1 antiviral 1.0.
For COCC(C)NC(=O)c1ccc(Cl)c(Cl)c1 (stereo unspecified) the results were H5N1 antiviral inactive.
Cc1ccc(S(=O)(=O)NCCNC(=O)CN2CCCC2)cc1 was read as H5N1 antiviral 1.5.
`Cc1cc(C)cc(NC(=O)c2cccn2-c2ncc(C(F)(F)F)cc2Cl)c1` gave H5N1 antiviral inactive.
`O=S(=O)(NCc1cccnc1)c1ccc(Cl)s1` gave H5N1 antiviral inactive.

Only part of the results is shown; the hit share may differ from the screen's.
